# Rango-impB inh = qHTS Assay for Inhibitors of Rango (Ran-regulated importin-beta cargo) - Importin beta complex formation; Rango CFP/YFP FRET sensor + importin beta, 45 min; hit rate 0.031% among 340,000; AID 540263, 2011; Potency, µM (highest dose often 92.2 µM), without a hit: at the highest dose inhibition of complex formation; active = rising FRET ratio curve, often small or poorly fitted; inconclusive = mostly compound fluorescence or quenching in the first reads; inactive = flat curves in all reads;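 note: potency is the fitted concentration of half-maximal effect; 0% = DMSO wells and 100% = buffer wells lacking importin beta; nearly all actives have a fitted effect of over 15% in size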
# Target sequence (Q14974 whole entry, looked up): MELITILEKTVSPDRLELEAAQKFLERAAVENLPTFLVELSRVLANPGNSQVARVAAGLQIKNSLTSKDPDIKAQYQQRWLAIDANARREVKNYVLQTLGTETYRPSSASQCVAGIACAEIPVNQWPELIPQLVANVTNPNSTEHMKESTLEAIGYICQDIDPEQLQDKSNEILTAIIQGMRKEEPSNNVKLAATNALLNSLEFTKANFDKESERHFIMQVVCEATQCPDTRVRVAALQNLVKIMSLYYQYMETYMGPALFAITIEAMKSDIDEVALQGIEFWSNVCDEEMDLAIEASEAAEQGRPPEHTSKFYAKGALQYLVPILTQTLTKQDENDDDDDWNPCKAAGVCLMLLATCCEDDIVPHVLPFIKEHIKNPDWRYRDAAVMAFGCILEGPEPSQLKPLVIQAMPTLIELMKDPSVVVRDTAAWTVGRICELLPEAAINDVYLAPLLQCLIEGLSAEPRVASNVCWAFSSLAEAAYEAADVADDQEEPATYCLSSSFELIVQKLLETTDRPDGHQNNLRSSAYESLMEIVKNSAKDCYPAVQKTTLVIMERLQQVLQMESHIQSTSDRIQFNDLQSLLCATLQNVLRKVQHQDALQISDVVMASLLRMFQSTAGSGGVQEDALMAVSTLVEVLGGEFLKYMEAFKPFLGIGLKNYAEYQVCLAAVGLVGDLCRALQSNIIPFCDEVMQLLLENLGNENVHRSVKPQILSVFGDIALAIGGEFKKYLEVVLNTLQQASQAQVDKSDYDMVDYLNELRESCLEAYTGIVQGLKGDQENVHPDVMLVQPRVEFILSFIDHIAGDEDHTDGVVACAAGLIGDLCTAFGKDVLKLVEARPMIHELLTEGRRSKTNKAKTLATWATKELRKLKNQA
#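 FRET biosensor (snurportin 1 IBB flanked by EYFP and cerulean), 50 nM, with compound 5 min, then 0.125 microM importin beta in PBS, 1 mM DTT, 0.02% Tween-20, 0.1% BSA. CFP/YFP ratio read after 45 min at room temperature; pre-read flags interference.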
# miR-21 reporter = qHTS Assay for Modulators of miRNAs and/orActivators of miR-21 | HeLa miR-21 FLuc reporter, luciferase, 48 h | Potency, µM (highest dose often 38.3 µM), for the others: at the top dose reporter change, positive = more light | 340,000 tested, under 10 active | AID 2288, 2010; active = well fitted rising curve with a large enough effect; inconclusive = small, poorly fitted or top-dose-only effect; inactive = no such curve, though single readings can be large or run the other way;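 note: % of control where 0% means no effect; miR-21 action dims this reporter so a rising signal means less miR-21 action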
#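 HeLa cells endogenously expressing miR-21, stably carrying CMV-driven firefly luciferase with a downstream miR-21 binding site, 2000 cells/well. Titrations up to approximately 40 uM, 48 hours; luciferase luminescence read.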
# Rango release inh = qHTS Assay for Inhibitors of RanGTP induced Rango (Ran-regulated importin-beta cargo) - Importin beta complex dissociation; Snurportin-1 (Homo sapiens) + GTP-binding nuclear protein Ran (Homo sapiens) + Importin …; Biochemical FRET Rango-importin beta, RanGTP-induced dissociation; Potency, µM (titrated, usually from 46.1 µM), for the others: at the highest dose activity change, negative = inhibition; hit rate 0.071% among 340,000; active means falling FRET ratio curve, often poorly fitted, with flat reads before Ran was added; inconclusive means other falling curves, or compound fluorescence or quenching; inactive means flat or rising ratio curve;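 note: potency is the fitted concentration of half-maximal effect; % of control where 0% means no effect; nearly all actives have a fitted effect of over 45% in size; -100% = wells without RanGTP and RCC1; the record marks most hits as doubtful in a second field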
#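 Rango/importin beta premix (0.1/0.25 uM final), PBS + 1 mM DTT + 0.02% Tween-20 + 0.1% BSA; cpd 5 min RT; FRET pre-read; + RanGTP-RCC1 (0.6 uM Ran, 2 mM GTP, 0.2 uM RCC1); 45 min RT; FRET post-read, ex 430, em 486/530 nm.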
# GLA inh pH 4.5 = qHTS Assay for Inhibitors of Human alpha-Galactosidase at pH 4.5. purified enzyme, 4-MU-alpha-Gal fluorescence, pH 4.5. activity change, negative = inhibition, % at 105 µM. 230,000 tested, under 10 active. AID 1467, 2008; inconclusive = small, poorly fitted or top-dose-only inhibition, or a rising curve; inactive = flat fitted curve, though single readings scatter; no compound was filed as active;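 note: 0% = full activity with enzyme and -100% = basal without enzyme; dose as in the result columns while the protocol names 77 µM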
# Numbers without * were called inactive; ? = inconclusive; / = no result given.
SMILES,Rango-impB inh,miR-21 reporter,Rango release inh,GLA inh pH 4.5
O=C(CNS(=O)(=O)c1ccccc1)NCc1ccco1,-1.9%,2%,-10%,/
COC(=O)c1[nH]c2ccc(C)cc2c1NC(=O)CCN1CCN(C2CCCCC2)CC1,/,-17%,/,6
O=c1[nH]c2cccnc2c2ccsc12,-1.1%,-1%,0%,6
COc1ccc(C(=O)COC(=O)c2ccc(N(C)C)cc2)cc1,1.4%,-1%,2%,5
CCOC(=O)CC(=O)N/N=C/c1c(N)n(C)c(=O)n(C)c1=O,2.1%,6%,1%,1
O=C(CSC(=S)N1CCCC1)c1cc(Br)cc(Br)c1O,?,0%,-24%,4
Cc1ccc(S(=O)(=O)CCC(=O)OCC(=O)Nc2ncc(Cl)cc2Cl)cc1,-1.4%,3%,-4%,-4
CCCC(C(=O)NC(C)(C)C)N(Cc1ccc(F)cc1)C(=O)c1snc(C(N)=O)c1N (configuration not stated),-1.3%,5%,-2%,/
O=C(NC(=S)NC1CCCC1)c1ccccc1,-4.1%,-46%,-11%,/
COc1ccc(N2CCN(Cc3ccc(Br)s3)CC2)cc1,-2.9%,-2%,3%,-2
Cc1cc(C)c(C)c(S(=O)(=O)N2C(=S)NC(=O)C2C(C)C)c1C (configuration not stated),-1.0%,-5%,12%,2
CC(=O)c1c(C)[nH]c(C(=O)OCc2ccccc2)c1C,0.8%,-33%,17%,/
CCn1c(CNc2ccc(OC)cc2)nnc1SCC(=O)Nc1ccc(F)cc1,1.6%,-5%,1%,-2
CNc1c([N+](=O)[O-])cnn1-c1ccc(Cl)cc1,5.0%,-3%,13%,-6
Cc1ccc(SCC(=O)NC(=O)NCc2ccccc2)c(C)c1,-1.6%,-6%,19%,2
COc1cc(OC)cc(C(=O)NNC(=O)c2nn(C)c(=O)c3ccccc23)c1,1.1%,/,10%,/
CCn1nc(NC(=O)C(C)(C)C)c2cc3cccc(C)c3nc21,?,6%,?,/
O=C(COc1nsnc1N1CCOCC1)Nc1ccc(Br)cc1,2.4%,0%,1%,/
CCOC(=O)C1=C(COC(=O)c2cccnc2SC)NC(=O)NC1C (configuration not stated),3.6%,/,-14%,/
Cc1cccc(N2C(=O)CC(N3CCN(Cc4ccc5c(c4)OCO5)CC3)C2=O)c1 (configuration not stated),1.7%,0%,27%,-5
COC(CNC(=O)c1cc(C(=O)c2c(-c3c(Cl)cccc3Cl)noc2C)c[nH]1)OC,-1.0%,1%,4%,5
CC(C)(Oc1ccc(Cl)cc1)C(=O)NC1CCSC1=O (configuration not stated),4.8%,-5%,-1%,-11
CC(=O)Nc1ccc(CN2CCC(n3nccc3NC(=O)CCc3ccccc3)CC2)cc1,0.6%,-3%,-17%,/
CCOC(=O)COc1nc(-c2ccc(C)cc2)cc(-c2ccco2)c1C#N,-0.4%,-1%,0%,13
COc1ccc(OC)c(-c2cc(C3CCN(C(=O)OC(C)(C)C)CC3)[nH]n2)c1,2.2%,-27%,11%,-3
# Continued.
SMILES,Rango-impB inh,miR-21 reporter,Rango release inh,GLA inh pH 4.5
N#CC1=C(N)N2C(=C(C#N)C13CCCC3)Nc1ccccc12,?,-2%,?,9
O=C(NNC(=O)C1CCCC1)c1ccccc1F,1.8%,-1%,-12%,/
CCN(CC(=O)Nc1cccc(OC)c1)C(=O)c1cnc(Cl)c(Cl)c1,-0.5%,1%,12%,/
COC(=O)C(C)n1cnc2c(nnn2-c2ccc(F)cc2)c1=O (configuration not stated),-0.2%,-5%,-12%,/
O=C(NC(=S)Nc1ccc(Cl)cn1)C12CC3CC(CC(C3)C1)C2,-1.5%,3%,-3%,5
O=C(N/N=C/c1c[nH]c2ccccc12)c1[nH]c2ccc(Br)cc2c1-c1ccccc1,1.0%,24%,-2%,6
Cc1ccc(NC(=O)CN(C)C(=O)c2cc(-c3ccccc3)nn2-c2ccccc2)cc1,-1.6%,/,1%,/
O=C(c1ccc(Cl)cc1)N1CCN(c2cc(=O)[nH]nc2-c2ccccc2)CC1,1.5%,-6%,4%,1
Cc1ccc2c(c1)c(C)cc[n+]2Cc1ccccc1,-2.4%,28%,-8%,-1
CC1C(=O)N2CCCc3cc(NC(=O)c4ccccc4F)cc1c32 (configuration not stated),-0.3%,/,-19%,/
CCOC(=O)c1nn(-c2ccccc2)c(C(=O)OCC)c1N,-5.2%,-2%,1%,4
O=Cc1c(NCc2ccccc2Cl)c2ccccc2[nH]c1=O,1.9%,2%,-9%,/
O=C(Nc1ccc(OC(F)F)cc1)c1ncc(Cl)c(Cl)c1Cl,-7.1%,11%,0%,2
Cc1ccc2nc(-c3ccccc3)c(CN3CCOCC3)n2c1,1.2%,-19%,10%,0
Cc1[nH][nH]c(=O)c1C(c1ccc(O)c(Br)c1)c1c(C)[nH][nH]c1=O,3.9%,12%,10%,/
O=C(c1nc2nc(-c3ccccc3)cc(C(F)(F)F)n2n1)N1CCCCC1,-2.7%,-3%,22%,-14
CCOc1ccc(Br)cc1S(=O)(=O)Nc1ccc(S(=O)(=O)Nc2cc(C)on2)cc1,5.3%,/,1%,/
Oc1ccc(Cl)cc1Sc1cc(Cl)ccc1O,2.4%,/,2%,/
Cc1ccc(C)c(SCC(=O)OCC(=O)Nc2ncc(C(F)(F)F)cc2Cl)c1,-1.2%,0%,-15%,3
O=C(O)c1cc(S(=O)(=O)Nc2ccc3c(c2)OCCO3)c(Cl)cc1Cl,-0.1%,-25%,-1%,-1
CC1C(=O)OC(c2ccc(Cl)cc2)C(C)(C)C1=O (configuration not stated),1.1%,0%,3%,/
COCc1cc(=O)[nH]c(SCC(=O)N2CCOCC2)n1,-1.8%,0%,-11%,/
COc1ccc(/C=N/NC(=O)c2ccccc2O)cc1Cn1nnc2ccccc21,0.2%,-35%,20%,-10
CCN(C(=O)CSc1nc(C)nc2sc(C)c(C)c12)c1ccc(F)cc1,-0.3%,/,3%,/
O=C(C1CCOCC1)N1CCC(CO)(CCc2ccccc2)CC1,3.8%,0%,0%,-2
# (cont.)
SMILES,Rango-impB inh,miR-21 reporter,Rango release inh,GLA inh pH 4.5
O=C(CN1CCN(S(=O)(=O)c2ccc3ccccc3c2)CC1)Nc1ccc2c(c1)CCC2,-2.4%,5%,-2%,-14
CC(C)[C@H](NC(=O)N1c2ccccc2NC(=O)[C@@H]1C(C)C)C(=O)N[C@@H](Cc1ccccc1)C(=O)O,4.9%,-6%,11%,/
COc1ccc(-n2nc(C(=O)NCC(=O)NCc3ccccc3OC)c3ccccc3c2=O)c(OC)c1,0.6%,1%,-5%,9
Cc1cc(NC(=O)CSc2nnnn2-c2ccccc2C)no1,1.0%,-25%,2%,/
COC(=O)c1ccc(/C=C/c2nc3ccccc3c(=O)[nH]2)cc1,-1.1%,-9%,-7%,/
Cc1ccc(C)c(C(=O)NC(C)c2ccc(-n3ccnc3)cc2)c1 (configuration not stated),-3.3%,-5%,7%,/
Cc1ccc(C)c(S(=O)(=O)/N=C(/Nc2ccccc2)c2ccccc2)c1,-0.8%,/,8%,/
Cc1ccc(C2N(c3ccccc3)C(=S)N3CCCN23)cc1 (configuration not stated),-2.3%,-5%,-4%,-6
Cc1oc(C2CC2)cc1C(=O)O,2.2%,-1%,19%,2
COc1cc(-c2cc(C(=O)NCc3ccc(S(N)(=O)=O)cc3)c3ccccc3n2)cc(OC)c1OC,-2.2%,27%,15%,/
CN1/C(=C\C(=O)c2ccccc2Cl)c2ccccc2CC1(C)C,1.4%,-1%,-12%,4
COc1ccc(NC(=O)CSc2nnc(-c3ccccc3C)n2C)cc1,-0.8%,-3%,-9%,-4
Brc1ccc(-c2noc(C3CCCCC3)n2)cc1,-0.7%,-21%,-3%,5
Cc1ccc(-c2noc(C3CCCN(C(=O)c4ccccc4Br)C3)n2)cc1 (configuration not stated),-0.2%,0%,10%,/
OC1(c2ccc(Cl)cc2)CN(c2ccccc2)C2=[N+]1CCS2 (configuration not stated),0.1%,-8%,-15%,0
CCOC(=O)c1[nH]c2ccccc2c1CCCN1C(=O)c2ccccc2C1=O,0.1%,4%,21%,5
CC(C(=O)NCc1ccccc1)N(CCN1CCOCC1)C(=O)c1snc(C(N)=O)c1N (configuration not stated),/,0%,/,0
Cc1nn(CCO)c(C)c1Oc1ccccc1O,-0.5%,-12%,13%,-8
Cc1cccn2c(=O)c3cc(C(=O)O)n(C)c3nc12,?,-5%,?,?
COc1ccc(CNC(=O)N[C@H](C(=O)O)C(C)C)cc1OC,-2.0%,1%,22%,5
O=C(COC(=O)c1ccc([N+](=O)[O-])s1)Nc1ncc(C(F)(F)F)cc1Cl,?,1%,-13%,10
Cc1c(C(=O)N2CCN(C3CCS(=O)(=O)C3)CC2)oc2c(F)cccc12 (configuration not stated),-2.3%,/,3%,/
Cc1ccc(C)n1-c1ccc(C(=O)Nc2ccccc2)cc1,0.2%,-33%,-19%,4
O=C(NCC1COc2ccccc2O1)c1ccc(-n2cncn2)c([N+](=O)[O-])c1 (configuration not stated),?,/,-8%,/
CCN(c1ccccc1)S(=O)(=O)c1ccc(Oc2ccccc2)c(N)c1,1.9%,/,0%,/
# Next section
SMILES,Rango-impB inh,miR-21 reporter,Rango release inh,GLA inh pH 4.5
Cc1ccc(N2C(=O)c3ccccc3C2=O)cc1C,7.4%,-2%,-11%,-13
CCN(CC)S(=O)(=O)c1ccc(C2CNC(=O)C2)cc1 (configuration not stated),-0.1%,0%,-2%,4
CN(c1ccccc1)S(=O)(=O)c1cccc(C(=O)OCC(=O)NCc2ccco2)c1,4.0%,-1%,4%,-2
CCOC(=O)c1oc2ccc(CNCCO)c(Cl)c2c1C,?,-42%,0%,2
Cc1cc(C)n(C(=O)c2c([N+](=O)[O-])cnn2C)n1,0.4%,0%,-10%,-10
CCn1c(SCC(=O)N2CCc3ccccc3C2)nc2c1c(=O)n(C)c(=O)n2C,1.6%,7%,-5%,9
CC1(C)Cc2c(cnn2-c2ccc(F)cc2)C(NC(=O)CN2CCCCC2=O)C1 (configuration not stated),-0.2%,-4%,-2%,/
CCOc1ccc(CCNC(=O)CN2C(=O)COc3ccc(S(=O)(=O)N4CCOCC4)cc32)cc1,0.0%,4%,-9%,/
C[C@H](NC(=O)c1ccc(Cl)cc1)C(=O)NCCc1ccc(S(N)(=O)=O)cc1,-1.5%,-3%,-2%,6
CCOc1ccc(NC(=S)NC(C)c2cccs2)cc1 (configuration not stated),3.6%,-16%,0%,3
COC(=O)C1C(C(C)C)N(c2ccccc2)OC1(C)O (configuration not stated),-3.3%,-4%,-2%,8
CCS(=O)(=O)N1CCC(C(=O)Nc2cccc(C(C)=O)c2)CC1,-0.1%,-3%,9%,1
C/[N+]([O-])=C\C1C(=O)CCCC1=O,-1.5%,-2%,-3%,0
CC1=C(C)CC(C(=O)NNC(=O)c2ccccc2O)C(C(=O)O)C1 (configuration not stated),0.2%,14%,-7%,8
Cn1c(NN)nc2c1c(=O)n(Cc1ccccc1)c(=O)n2C,5.8%,7%,-2%,/
Cc1ccccc1CNc1ncnc2cc(Cl)ccc12,-0.8%,1%,-5%,/
Fc1ccc(N/N=C/c2ccc(N3CCOCC3)cc2)c(F)c1,-1.8%,-29%,4%,-11

# Fetched by compound from the entries so far:
SMILES,Rango-impB inh,miR-21 reporter,Rango release inh,GLA inh pH 4.5
CCN(CC)S(=O)(=O)c1ccc(C2CNC(=O)C2)cc1 (configuration not stated),-0.1%,0%,-2%,4
CCn1c(SCC(=O)N2CCc3ccccc3C2)nc2c1c(=O)n(C)c(=O)n2C,1.6%,7%,-5%,9
CN(c1ccccc1)S(=O)(=O)c1cccc(C(=O)OCC(=O)NCc2ccco2)c1,4.0%,-1%,4%,-2
Fc1ccc(N/N=C/c2ccc(N3CCOCC3)cc2)c(F)c1,-1.8%,-29%,4%,-11
CCOC(=O)c1oc2ccc(CNCCO)c(Cl)c2c1C,?,-42%,0%,2

# An excerpt from above, limited to Rango release inh.
SMILES	Rango release inh
CCOc1ccc(NC(=S)NC(C)c2cccs2)cc1 (configuration not stated)	0%
CCS(=O)(=O)N1CCC(C(=O)Nc2cccc(C(C)=O)c2)CC1	9%

# Not all compounds are listed; rates above refer to the full screens.
